Screening results as filed in PubChem BioAssay.
KCNQ2 block – KCNQ2 potassium channel inhibitors, primary screen, cell-based, CHO-K1, FluxOR thallium flux, B-score (AID 2156). B-score at 10 µM. hit rate 1.1% among 310,000. O88943. 20 min; stronger effect = lower value; only compounds with negative scores are shown here; some inactives read as strong as hits;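 active means fluorescence ratio B-score at most minus 3 library SDs, with starting brightness B-score within 2 library SDs, cut at about -5.5 in these data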
Target sequence (O88943 whole entry, looked up): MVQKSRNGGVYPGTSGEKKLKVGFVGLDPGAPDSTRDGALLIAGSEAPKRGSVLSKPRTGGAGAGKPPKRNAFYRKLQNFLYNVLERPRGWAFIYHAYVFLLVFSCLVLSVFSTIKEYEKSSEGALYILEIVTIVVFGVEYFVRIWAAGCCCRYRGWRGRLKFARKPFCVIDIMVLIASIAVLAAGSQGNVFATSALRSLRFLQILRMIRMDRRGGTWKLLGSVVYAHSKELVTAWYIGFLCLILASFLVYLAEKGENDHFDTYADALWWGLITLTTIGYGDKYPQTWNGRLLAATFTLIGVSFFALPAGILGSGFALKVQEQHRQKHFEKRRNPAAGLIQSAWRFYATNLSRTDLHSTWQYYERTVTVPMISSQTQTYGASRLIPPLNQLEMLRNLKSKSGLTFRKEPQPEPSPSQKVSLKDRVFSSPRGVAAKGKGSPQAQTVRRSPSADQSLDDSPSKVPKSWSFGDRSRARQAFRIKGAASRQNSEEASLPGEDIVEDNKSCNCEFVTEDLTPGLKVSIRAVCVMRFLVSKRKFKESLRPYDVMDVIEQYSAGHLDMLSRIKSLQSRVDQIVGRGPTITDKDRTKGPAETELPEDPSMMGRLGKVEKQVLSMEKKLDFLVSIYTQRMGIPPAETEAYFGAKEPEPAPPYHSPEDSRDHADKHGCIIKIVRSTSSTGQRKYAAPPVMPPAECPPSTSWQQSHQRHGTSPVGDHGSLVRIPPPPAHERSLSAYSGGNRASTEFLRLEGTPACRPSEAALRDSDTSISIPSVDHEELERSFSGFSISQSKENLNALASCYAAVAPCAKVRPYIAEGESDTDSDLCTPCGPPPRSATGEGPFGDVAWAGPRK
KCNQ2 block baseline – recorded beside KCNQ2 block, whose call it bears; B-score; measured here: initial fluorescence intensity artifact check;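 brightness before thallium and not channel activity; 0 = typical well and far values either way flag optical interference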
Active calls of the source: *; i = inactive. Only part of the results is shown; the hit share may differ from the screen's.

Sequence of screens – KCNQ2 block, KCNQ2 block baseline
COc1ccc(CNC(=O)CN(c2ccc(C)cc2)S(=O)(=O)c2c(C)nn(C)c2C)cc1
→ i, -0.03
CCOC(=O)Cn1nc(C)n(-c2ccc(F)cc2)c1=O
→ i, 0.58
CSCCC(NC(=O)c1cccc(C)c1)C(=O)Nc1sccc1C(N)=O (stereo unspecified)
→ i, -0.25
Cc1cc2nc(C3CCN(CC4COc5ccccc5O4)CC3)[nH]c2cc1C (stereo unspecified)
→ i, -0.98
CCN(CC)c1ccc(NC(=O)c2ccc(Cl)nc2)cc1
→ i, -1.9
Cc1cc(Oc2ccc(-c3ccccc3)cc2)nc(N2CCOCC2)n1
→ i, 0.39
O=C(O)CCCCCCCCCC(=O)c1cccs1
→ i, 0.21
CSc1cccc(CN2CCC(CO)(Cc3ccccc3)CC2)c1
→ i, 0.26
COc1ccc(OC)c(NC(=O)C2CCCN(S(=O)(=O)c3cccc4nonc34)C2)c1 (stereo unspecified)
→ i, -1.3
Cc1cc2ccccc2n1CCNC(=O)Cc1ccccc1
→ i, 3.4

One compound at a time (already shown):
COc1ccc(CNC(=O)CN(c2ccc(C)cc2)S(=O)(=O)c2c(C)nn(C)c2C)cc1 reads KCNQ2 block = i; KCNQ2 block baseline = -0.03
Cc1cc2nc(C3CCN(CC4COc5ccccc5O4)CC3)[nH]c2cc1C (stereo unspecified) reads KCNQ2 block = i; KCNQ2 block baseline = -0.98
CCN(CC)c1ccc(NC(=O)c2ccc(Cl)nc2)cc1 reads KCNQ2 block = i; KCNQ2 block baseline = -1.9

More records.
Sequence of screens – KCNQ2 block, KCNQ2 block baseline
Cc1ccnc(NC(c2ccsc2)c2ccc3ccc(C)nc3c2O)c1 (stereo unspecified)
→ i, -0.54
Cc1nc2nc(SCC(=O)NCCN3CCOCC3)nn2c(C)c1Cc1ccccc1
→ i, -0.06
CCC(C)NC(=O)c1ccccc1NC(=O)/C(=C/c1ccc(OC)cc1)c1ccccc1 (stereo unspecified)
→ i, -2.7
Cc1cc(C)nc(SCC(=O)Nc2ccc(Br)cn2)n1
→ i, 0.1
Cc1ccc(C#N)c(SCCN2CCCCC2)n1
→ i, -1.4
O=C1ON=C(c2ccccc2)/C1=C/c1ccco1
→ i, -0.02
CCn1c(=O)n(CC)c2cc(NC(=O)c3ccccc3Cl)ccc21
→ i, -2.5
Nn1c(C2CCC2)nc2ccccc2c1=O
→ i, 0.68
CCCc1ccc(-c2cc(C(=O)N/N=C/c3ccc([N+](=O)[O-])o3)c3ccccc3n2)cc1
→ i, -0.26
Cn1cnc2cc(NCc3cccs3)ccc21
→ i, 1.5
COc1cc(Br)c(CN2CCCN(C)CC2)cc1OC
→ i, 1.9
COc1ccccc1NC(=O)Cn1nnc(-c2ccccc2NS(=O)(=O)c2ccccc2)n1
→ i, 1
CN(Cc1ccc2ccccc2c1)C(=O)c1ccc(C(F)(F)F)cc1
→ i, -0.8
O=C(NCCN1CCc2ccccc2C1)Nc1ccc(F)cc1
→ i, -0.54
O=C(O)c1cccc(-c2ccc(/C=c3/sc4nc5ccccc5n4c3=O)o2)c1
→ i, 0.05
CCc1nnc(NC(=O)C2Cc3ccccc3CN2S(=O)(=O)CC)s1 (stereo unspecified)
→ i, 1.1
Fc1ccccc1COc1ccc(-c2nnn(Cc3ccccc3F)n2)cc1
→ i, 0.54
CCS(=O)(=O)N1CCC(C(=O)NCc2ccc(F)cc2Cl)CC1
→ i, 1.1
CCN(CC)S(=O)(=O)c1cc(NC(=O)COC(=O)c2ccc(NC(=O)CC#N)cc2)ccc1C
→ i, -1.6
CN1CCSc2ccc(C(=O)NCc3ccccc3)cc21
→ i, 0.56
COc1ccc(C(=O)c2ccc(OC)cc2OC)cc1
→ i, -0.37
O=C(Nc1ccccc1)c1cccc(C(=O)Nc2ccccc2)n1
→ i, 1.5
C[N+]1(CC2COC3(CCCCC3)O2)CCCC1 (stereo unspecified)
→ i, 0.52
O=C(CC1C(=O)NCCN1Cc1cccc(Oc2ccccc2)c1)NCCn1cccn1 (stereo unspecified)
→ i, 1.2
COc1ccccc1NC(=S)NCc1ccccc1Cl
→ i, -0.58
N#CC(c1ccccc1)c1ccc(=O)[nH]n1 (stereo unspecified)
→ i, -0.26
Cc1cc(C)n2nc(C(=O)Nc3ccc4c(c3)OCO4)cc2n1
→ i, -1.8
COc1ccc(S(=O)(=O)Nc2cccc(-c3ccc(N4CCCCCC4)nn3)c2)c(OC)c1
→ i, -0.89
COc1ccc(C(=O)C2CCCN(C(=O)Cc3c(C)noc3C)C2)cc1OC (stereo unspecified)
→ i, -0.02
CCOc1ccc(N2C(=O)S/C(=C\c3cc(OC)c(OC)c(OC)c3)C2=O)cc1
→ i, 0.09
CCOCCCn1c(=S)[nH]c2cc(C(=O)NCCOC)ccc2c1=O
→ i, -0.01
Cc1onc(-c2c(F)cccc2Cl)c1C(=O)NC(C)c1ccccc1 (stereo unspecified)
→ i, 1.4
COc1ccc(NCc2nc3ccccc3n2CCOc2ccc(C)cc2)cc1
→ i, 0.44
Oc1ccccc1-c1cc(C(F)(F)C(F)F)nc(-c2ccccc2)n1
→ i, -0.61
O=C(O)c1ccc(Cl)c(S(=O)(=O)N2CCC(Cc3ccccc3)CC2)c1
→ i, 0.3
O=C(NNS(=O)(=O)c1ccccc1)c1ccc(F)cc1
→ i, 0.88
CS(=O)(=O)Nc1ccc(C(=O)Nc2ccccc2-c2ccccc2)cc1
→ i, 0.67
CCCCCCCCn1c(=O)c(C(=O)OCC)c(O)c2ccccc21
→ i, -0.24
COc1ccc(/C=C(\NC(=O)c2ccc([N+](=O)[O-])cc2)C(=O)NCCN2CCOCC2)cc1
→ i, -1.9
Cc1ccc(NS(=O)(=O)c2ccc(C(=O)OCC(=O)NCC3CCCO3)cc2)cc1 (stereo unspecified)
→ i, -0.06
CCN(CC)CCN(C(=O)c1cc2ccccc2cc1OC)c1nc2ccc(OC)cc2s1
→ i, 2.6
COc1ccccc1C(=O)c1cc2ccc(O)cc2oc1=O
→ i, -0.17
COc1ccc(C)cc1N(C(=O)COc1ccccc1)c1nc2ccccc2s1
→ i, -1.9
O=C(CN(Cc1ccccc1F)C(=O)Cn1nnc(-c2cccs2)n1)NC1CCCCC1
→ i, -0.35
CCN1CCC(NC(=O)Nc2cc(Cl)ccc2OC)CC1
→ i, 0.84
COc1ccc(C(c2nnnn2CC2CCCO2)N2CCC(C(N)=O)CC2)cc1 (stereo unspecified)
→ i, 0.04
C/C(CC(=O)Nc1cc(Cl)ccc1Cl)=N\NC(=O)COc1cccc(C)c1
→ i, -0.89
CC(=O)C1=C(O)C(=O)N(c2ccc(Br)cc2)C1c1ccccc1[N+](=O)[O-] (stereo unspecified)
→ i, 0.15
OCC1(CCOc2ccccc2)CCN(Cc2ccncc2)CC1
→ i, 2.2
O=C(COc1ccccc1Br)NCCc1nc2ccccc2[nH]1
→ i, 1.7

Going on with the list:
Sequence of screens – KCNQ2 block, KCNQ2 block baseline
CCc1cccc(NC(=O)CN(c2ccc(C)cc2)S(=O)(=O)c2c(C)noc2C)c1
→ i, -2.5
CCC(=O)NC(=S)Nc1ccc(NC(=O)c2cccc([N+](=O)[O-])c2C)cc1
→ i, 0.18
CS(=O)(=O)c1cnc(-c2ccccc2)nc1Oc1ccc(Cl)cc1
→ i, -0.12
O=C1CC(NNC(=O)c2cccc(F)c2)C(=O)N1 (stereo unspecified)
→ i, -1.1
CCOC(=O)C1CCN(S(=O)(=O)c2ccc3c(ccn3C)c2)CC1
→ i, 2
COc1ccc2[nH]c(CN3CCN(CC=C(C)C)C(CCO)C3)c(C)c2c1 (stereo unspecified)
→ i, -1.4
CCOC(=O)Cn1c(=O)oc2cc(S(=O)(=O)NCCCc3ccccc3)ccc21
→ i, 1.5
CCCCN(C(=O)NCCCCCCNC(=O)N(CCCC)C1CCS(=O)(=O)C1)C1CCS(=O)(=O)C1 (stereo unspecified)
→ i, 0.49
CN(C)/C=C/C(=O)c1ccc(-c2ccc(Cl)cc2Cl)o1
→ i, -1.7
CCC1CCCCN1C(=O)c1ccc(OC2CCN(C(=O)CCOC)CC2)cc1 (stereo unspecified)
→ i, -0.64
COc1ccc(C(CC(=O)O)NC(=O)c2cccs2)cc1 (stereo unspecified)
→ i, 1.3
Cc1ccc(Oc2cnn(-c3ccccc3)c(=O)c2Br)cc1
→ i, 0.01
N/C(=N\OC(=O)Oc1ccccc1)c1ccc(Cl)cc1
→ i, -0.36
CCOC(=O)c1cnn(-c2ccccc2)c1NC(=O)CN1CCCCC1
→ i, 0.8
Cc1nn(Cc2ccc(Cl)c(Cl)c2)c(C)c1NC(=O)c1cc(C2CC2)on1
→ i, 0.2
COc1ccc(OCCn2c(=O)sc3ccccc32)cc1
→ i, -1.5
COc1ccccc1OCc1ccc(C(=O)Nc2cc(OC)c(OC)c(OC)c2)o1
→ i, 0.48
O=C(C1=C[C@H](c2ccc3c(c2)OCO3)C[C@H](OCCCCO)O1)N1CCN(Cc2ccccc2)CC1
→ i, -0.45
O=C(C1CCN(C2CCN(CC3CC=CCC3)CC2)CC1)N1CCOCC1 (stereo unspecified)
→ i, -1.2
CCNC(=S)NNC(=O)c1csc(C(C)C)c1
→ i, 1.3

Molecules shown so far that contain a COOH group, in the order listed:
Sequence of screens – KCNQ2 block, KCNQ2 block baseline
O=C(O)CCCCCCCCCC(=O)c1cccs1
→ i, 0.21
O=C(O)c1cccc(-c2ccc(/C=c3/sc4nc5ccccc5n4c3=O)o2)c1
→ i, 0.05
O=C(O)c1ccc(Cl)c(S(=O)(=O)N2CCC(Cc3ccccc3)CC2)c1
→ i, 0.3
COc1ccc(C(CC(=O)O)NC(=O)c2cccs2)cc1 (stereo unspecified)
→ i, 1.3

Following part.
Sequence of screens – KCNQ2 block, KCNQ2 block baseline
CC(C)c1ccc(S(=O)(=O)N2CCN(C(=O)C3CC3C)CC2)cc1 (stereo unspecified)
→ i, -0.73
Cc1n[nH]c(C)c1CCNC(=O)C1CCC(=O)N(CCc2cccc(F)c2)C1 (stereo unspecified)
→ i, -1
Cc1ccc2c(c1)c1c(n2C)-c2[nH]ncc2CC1
→ i, -0.57
CCc1cccc2c(SC(C)C(=O)NCC3CCCO3)nc(-c3ccccc3)nc12 (stereo unspecified)
→ i, 0.12
Cc1cc(C)c(C)c(OCCCCN(C)Cc2ccccc2)c1
→ i, 1.4
CCOc1cc(C=O)cc(Br)c1OCC(=O)NCCc1ccccc1
→ i, -0.78
CCOc1ccccc1NC(=O)c1cccc(NC(=O)c2ccco2)c1
→ i, -0.68
O=C(Cc1ccccc1)N[C@@H](Cc1ccc(O)cc1)C(=O)O
→ i, 0.47
COc1cc(C(=O)N2CCC(N3CCCCCC3)CC2)cc(OC)c1OC
→ i, -0.71
COc1ccccc1NC(=O)Nc1ccccc1SC
→ i, 1.8
Cc1cc(C)cc(C(=O)Nc2nnc(SCC(=O)N3CCCc4ccccc43)s2)c1
→ i, -0.05
CO/N=C(\c1ccccc1)c1cccnc1
→ i, 0.48
COc1ccc(C2=NN(C(=O)CSc3nc4ccccc4s3)C(c3ccc(F)cc3)C2)cc1 (stereo unspecified)
→ i, 1.4
Cc1csc(NC(=O)C(C)Oc2ccc(Br)cc2)n1 (stereo unspecified)
→ i, 3.1
CCCC(C)C(=O)Nc1nc(C)c(-c2csc(Nc3ccccc3OC)n2)s1 (stereo unspecified)
→ i, 0.03
Cc1ccc(NS(=O)(=O)c2ccc(-c3coc(C)n3)cc2)c(C)c1
→ i, -0.32
CSCC[C@H](NC(=O)c1ccc2c(c1)OCO2)c1nnc2ccccn12
→ i, -0.2
C=C(C)c1cccc(C(C)(C)NC(=O)Nc2nncs2)c1
→ i, 3
O=C1CC(c2ccc(S(=O)(=O)N3CCCCC3)cc2)CN1 (stereo unspecified)
→ i, 0.27
CCOC(=O)NCc1ccc2[nH]c(C)cc2c1
→ i, 0.76
O=C1Cc2cc(S(=O)(=O)N3CCN(c4ccccc4)CC3)ccc2N1
→ i, 0.27
Cc1cc(NC(=O)C(C)SCC(=O)OC(C)C(=O)Nc2ccc(F)cc2Cl)no1 (stereo unspecified)
→ i, 1.2
CC1(C)CC(=O)/C(=C\c2cccc([N+](=O)[O-])c2)C(C)(C)N1
→ i, 0.83
Cc1ccc(C(=O)N/C(=C/C=C\c2ccccc2)C(=O)NCc2ccco2)cc1
→ i, 0.16
CCCCN(C(=O)c1cc(OC)c(OC)c(OC)c1)C1=CC2CCC(C1)N2C (stereo unspecified)
→ i, -0.38
CCCn1c(SCC(=O)Nc2cccc(C)n2)nnc1C(C)C
→ i, -2.5
COc1ccc(NC(=O)CCC(=O)N/N=C/c2ccncc2)cc1
→ i, 1.4
O=C1CCc2cc(S(=O)(=O)N3CCCCC3)cc3c2N1CC3
→ i, 1.2
CCn1c(CCNC(=O)c2ccc(C)cc2)n[nH]c1=S
→ i, -1.7
Cc1ccc(Nc2cc(C(=O)NCCCN3CCOCC3)c3ccccc3n2)cc1C
→ i, -1.2
CCCCn1c(SCC(=O)N2CCCc3ccccc32)nc2c1c(=O)n(C)c(=O)n2C
→ i, -0.6
Cc1ccc2ccc(C(Nc3ccccn3)c3ccccc3)c(O)c2n1 (stereo unspecified)
→ i, 0.02
Cc1cc(C)n2[nH]c(=O)c(N=Nc3ccc(S(N)(=O)=O)cc3)c2n1
→ i, -0.91
COc1ccc(NC(=O)CSc2n[nH]c(C)c2[N+](=O)[O-])cc1
→ i, -1.8
O=c1[nH]c(CN2CCN(S(=O)(=O)c3ccc(Cl)cc3)CC2)nc2cc(Cl)ccc12
→ i, -0.36
Cc1ccc(-c2cnc3ccccc3n2)cc1C
→ i, -0.43
Nc1nc(NC(=O)c2ccc(F)cc2)ns1
→ i, 0.42
COc1cccc(CNC(=O)CCCn2c(=S)[nH]c3cc4c(cc3c2=O)OCO4)c1
→ i, -1.4
COc1ccccc1CNC(=O)COC(=O)c1cnccn1
→ i, -1.8
CCn1c(SCC(=O)N2CCC(C)CC2)nc2c1c(=O)n(C)c(=O)n2C
→ i, -1.4
